Bioassay records (PubChem)
VDR inhibitor – Inhibitors of the vitamin D receptor (VDR): qHTS; Vitamin D3 receptor (Homo sapiens), P11473; VDR-SRC2-3 peptide fluorescence polarization, 2 h; Potency, µM, inactives show max response, negative = inhibition, usual class: inhibitors; 400,000 compounds, 0.93% hits; AID 504847, 2011; active means well fitted inhibition curve with a large enough effect; inconclusive means small, poorly fitted or top-dose-only effect, or another doubt; inactive means no such curve, though single readings can be large or run the other way; further: series mostly up to about 120 µM
Target sequence (P11473 whole entry, looked up): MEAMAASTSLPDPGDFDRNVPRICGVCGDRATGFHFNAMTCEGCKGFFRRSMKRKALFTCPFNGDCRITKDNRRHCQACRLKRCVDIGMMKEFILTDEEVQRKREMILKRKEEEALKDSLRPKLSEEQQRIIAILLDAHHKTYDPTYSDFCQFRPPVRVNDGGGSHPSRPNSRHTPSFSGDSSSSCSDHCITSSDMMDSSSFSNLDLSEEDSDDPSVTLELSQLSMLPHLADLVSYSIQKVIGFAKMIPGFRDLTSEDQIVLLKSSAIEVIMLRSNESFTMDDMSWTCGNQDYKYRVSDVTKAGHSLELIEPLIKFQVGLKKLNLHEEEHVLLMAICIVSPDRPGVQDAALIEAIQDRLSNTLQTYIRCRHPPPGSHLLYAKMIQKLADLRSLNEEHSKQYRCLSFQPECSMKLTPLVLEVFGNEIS
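Signal is fluorescence polarization, reporting how far test compounds block the interaction of VDR with the SRC2-3 coregulator peptide after a 2 h room-temperature incubation.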
* hit, by the source's call; ? = inconclusive; & = joins results of further samples. On the % scale 0 is the no-effect control and ±100 the full control effect; potency means the concentration at half of the fitted maximal effect. This is a subset, so the mix of outcomes need not match the whole.

item	structure	VDR inhibitor
1	O=C(CSc1nc(-c2ccc(F)cc2)cc(C(F)(F)F)n1)NCc1cccs1	-14%
2	Cc1ccc(SCCCCN2C(=O)NC(C)(C)C2=O)cc1	2%
3	COc1ccc(C(=O)NC(=S)Nc2ccc(N3CCCC3)cc2)cc1	-3%
4	CCc1ccc(NC(=O)CSC2=Nc3ccccc3C3=NC(CC(=O)NCc4ccc5c(c4)OCO5)C(=O)N23)cc1 (centres undefined)	9%
5	O=C(COC(=O)c1ccc2ccccc2c1O)NCC(F)(F)F	-26%
6	Cc1ccc(N2CC(c3nc(-c4ccc(Cl)cc4)no3)CC2=O)cc1F (centres undefined)	13%
7	Cc1[nH]n(-c2ccc([N+](=O)[O-])cc2)c(=O)c1C=NCCN1CCN(C(=O)c2ccc(Br)cc2)CC1	1%
8	O=C(Nc1nc2ccccc2n1CCN1CCOCC1)c1ccc(Cn2cc([N+](=O)[O-])cn2)o1	-5%

The closing 3 compounds of the part above are carried over, then new ones follow:
item	structure	VDR inhibitor
6	Cc1ccc(N2CC(c3nc(-c4ccc(Cl)cc4)no3)CC2=O)cc1F (centres undefined)	13%
7	Cc1[nH]n(-c2ccc([N+](=O)[O-])cc2)c(=O)c1C=NCCN1CCN(C(=O)c2ccc(Br)cc2)CC1	1%
8	O=C(Nc1nc2ccccc2n1CCN1CCOCC1)c1ccc(Cn2cc([N+](=O)[O-])cn2)o1	-5%
9	COc1ccc([N+](=O)[O-])cc1NC(=O)C1CCCNC1=O (centres undefined)	7%
10	COc1ccc(Nc2sc(C(=O)c3ccc(Cl)cc3)c(N)c2C(=O)Nc2ccccc2OC)cc1	9%
11	CCN(CC)c1ccc(NC(=O)c2cnccn2)cc1S(=O)(=O)Nc1ccc(OC)cc1	?
12	CC(NC(=O)COC(=O)CCc1nc(=O)c2ccccc2n1C)c1ccccc1 (centres undefined)	-14%
13	Nc1ncnc(N(c2ccccc2)C2CCCCC2)c1[N+](=O)[O-]	-3%
14	Cn1c2ccccc2c(=O)c2c(=O)n(-c3ccc(F)cc3)c(-c3cccs3)nc21	11%
15	COc1cc(C=O)ccc1Oc1nnnn1-c1ccccc1	2%
16	CC(=O)Nc1ccc(/C=C(\C#N)C(=O)NC2CCCCC2)cc1	4%

Some of the entries so far, as labelled records:
7. Cc1[nH]n(-c2ccc([N+](=O)[O-])cc2)c(=O)c1C=NCCN1CCN(C(=O)c2ccc(Br)cc2)CC1
  VDR inhibitor: 1%

8. O=C(Nc1nc2ccccc2n1CCN1CCOCC1)c1ccc(Cn2cc([N+](=O)[O-])cn2)o1
  VDR inhibitor: -5%

9. COc1ccc([N+](=O)[O-])cc1NC(=O)C1CCCNC1=O (centres undefined)
  VDR inhibitor: 7%

10. COc1ccc(Nc2sc(C(=O)c3ccc(Cl)cc3)c(N)c2C(=O)Nc2ccccc2OC)cc1
  VDR inhibitor: 9%

Continued:
item	structure	VDR inhibitor
17	CN(C)C(=O)c1ccc(NC(=O)COC(=O)c2cc(S(=O)(=O)N(C)C)ccc2N2CCCC2)cc1	-11%
18	Cc1ccc(COC(=O)c2cc(S(=O)(=O)N3CCCCC3)ccc2N2CCOCC2)cc1	2%
19	O=[N+]([O-])c1ccc(CSc2ccc(-c3ccccn3)nn2)cc1	-2%
20	CCc1nnc(NC(=O)[C@@H](NC(=O)c2cccc(S(=O)(=O)N(CC)CC)c2)C(C)C)s1	-6%
21	O=C(Nc1cccc(S(=O)(=O)N2CCOCC2)c1)C1CC1	9%
22	CCN(c1ccc(C)cc1)S(=O)(=O)c1nnc(NC(=O)C2CCCCC2)s1	-3%
23	Cc1ccc(C(=O)Nc2ccc(-c3nc4ccccc4s3)cc2C)cc1C	4%
24	CCn1cc(C(=O)O)c(=O)c2cc(S(=O)(=O)N(C)C)ccc21	-9%

Next part.
item	structure	VDR inhibitor
25	CCCOc1ccc(C2/C(=C(/O)c3ccccc3)C(=O)C(=O)N2CCCN(C)C)cc1OC (centres undefined)	-2%
26	CCS(=O)(=O)N1CCC(C(=O)NCCC2=CCCCC2)CC1	15%
27	COc1ccc2nc(C)c3cc(C)oc3c2c1	19%
28	COC(=O)CCC(=O)OC1(C)C(=O)C2=CN(Cc3ccccc3)C(c3ccc(OC)cc3)=CC2=C(Br)C1=O (centres undefined)	?
29	Cc1onc(-c2c(Cl)cccc2Cl)c1C(=O)NCc1cccs1	0%
30	O=C(c1cccc(C(F)(F)F)c1)N1CCCCCC1	10%
31	c1ccc(OCCSc2nnnn2-c2ccccc2)cc1	-18%
32	Cc1cc(C)nc(NC(=S)Nc2cccc(F)c2)c1	-7%

Continuation:
item	structure	VDR inhibitor
33	O=C(Oc1cccc(/C=N/Nc2nc(Nc3ccccc3)nc(N3CCOCC3)n2)c1)c1ccco1	-21%
34	CCc1nnc(NC(=O)CSc2nnc(CNC(=O)c3ccccc3F)n2C)s1	-5%
35	CC#CCCCC(=O)Nc1ccc(C(=O)O)cc1	6%
36	Cc1ccc(NC(=O)C2CCCN2C(=O)OCc2ccccc2)c(C)c1 (centres undefined)	9%
37	COc1ccc(C2CC(c3c(-c4ccccc4)c4cc(Cl)ccc4[nH]c3=O)=NN2S(C)(=O)=O)cc1 (centres undefined)	0%
38	O=C(CSC1=NS(=O)(=O)c2ccccc2N1)N1CCCCC1	-6%
39	O=C(c1[nH]ncc1-c1cccc(Br)c1)C1CO1 (centres undefined)	8%
40	Cc1ccc(C)c(S(=O)(=O)N2CCCCC2CCNC(=O)C(=O)NCc2ccco2)c1 (centres undefined)	-3%

Following part.
item	structure	VDR inhibitor
41	CCn1nc(C)c(NC(=O)CC23CC4CC(CC(C4)C2)C3)c1C	0%
42	CCSc1ccc2nnc(-c3cccc(F)c3)n2n1	6%
43	Cc1ccc2nc(NCCCN3CCOCC3)c(C=NCCCN3CCOCC3)c(=O)n2c1	-3%
44	O=C1N(CN2CCN(c3cccc(Cl)c3)CC2)c2ccccc2C12OCCCO2	-5%
45	Cc1ccc(-n2nc3c(=O)n(C(C)C(=O)NCc4ccc(OC(C)C)cc4)nc(C)c3c2C)cc1 (centres undefined)	-3%
46	COC(=O)c1[nH]c2cccc(OC)c2c1NC(=O)CN(C)CC1OCCO1	-21%
47	COc1ccc(NS(=O)(=O)c2cc(S(C)(=O)=O)ccc2C)cc1	-1%
48	CS(=O)(=O)NCc1nnc(SCc2c(F)cccc2Cl)o1	-8%

Remaining list, next part.
item	structure	VDR inhibitor
49	COc1ccc(CNC(=O)Nc2cn(CC(C)C)c(=O)c3ccccc23)c(OC)c1	7%
50	CCNc1nc(SCC(=O)Nc2ccc(Cl)c(Cl)c2)nc(N2CCOCC2)n1	-5%
51	O=C(Nc1ccc(Cl)c(Cl)c1)Nc1cc(C(=O)N2CCOCC2)ccc1N1CCCCC1	10%
52	CC(C)CCNC(=O)c1ccc2c(c1)NC(=O)C(C(C)C)N2 (centres undefined)	-27%
53	COC(=O)[C@]1(Cc2ccccc2)N[C@H](CN(C)C(=O)c2ccc(C(C)(C)C)cc2)[C@@H]2C(=O)N(Cc3ccccc3)C(=O)[C@@H]21	-5%
54	COCCNC(=O)C1CC(c2ccccc2C(F)(F)F)=NO1 (centres undefined)	12%
55	Cc1nc(SCc2cccnc2)[nH]c(=O)c1C	6%
56	COCCCn1c(=O)c2sccc2n(Cc2cc(C(=O)OC)ccc2OC)c1=O	-2%

Values in list order from the entries so far.
Entries 53 to 56 in VDR inhibitor read -5%, 12%, 6%, -2%

(further entries)
item	structure	VDR inhibitor
57	O=C(Cc1ccccc1)NNC1CC(=O)N(c2ccc(Cl)cc2)C1=O (centres undefined)	-17%
58	Cc1ccc(C(=O)CSc2nc3cccnc3n2C)cc1	-1%
59	CCCN(CC(=O)Nc1cccc(Br)c1)CC(=O)Nc1ccc(F)c(F)c1F	-16%
60	COC(=O)C(C(=O)OC)C(CC(=O)c1ccc(Br)cc1)c1ccccc1 (centres undefined)	2%
61	CC(C)(C)S(=O)(=O)c1ccsc1C(=O)O	-3%
62	Cc1ccc(CNC(=O)c2cc(-c3cc(C)cc(C)c3O)n[nH]2)cc1	4%
63	CCOC(=O)C1C(=O)NC(c2ccccc2)=NC1c1ccc(Br)cc1 (centres undefined)	-3%
64	COCCn1cnc2c1c(=O)n(Cc1c(F)cccc1Cl)c(=O)n2Cc1ccccc1	8%

Further results
item	structure	VDR inhibitor
65	Cc1onc(-c2ccc(F)cc2F)c1C(=O)Nc1cccc(C(F)(F)F)c1	11%
66	O=C(CNC(=O)c1ccc2c(c1)OCO2)Nc1ncccc1O	-7%
67	Cc1nc2ccc(F)cc2cc1C(=O)Nc1ccc(Cl)c(Cl)c1	-8%
68	Cc1nc2ccccn2c1/C(O)=C1\C(=O)C(=O)N(CCN(C)C)C1c1ccco1 (centres undefined)	21%
69	CSc1nnc(NC(=O)c2cc(=O)c3cc(C)c(C)cc3o2)s1	13%
70	CC(=O)N1c2ccc(S(=O)(=O)N3CCCC(C(=O)Nc4cccc(F)c4)C3)cc2CC1C (centres undefined)	-17%
71	Cc1ccccc1-c1cc(C(=O)NCc2cccc(Br)c2)nn1CC1CC(c2cccc([N+](=O)[O-])c2)=NO1 (centres undefined)	-11%
72	O=c1cc(N2CCOCC2)[nH]c(=O)n1C1CCCCC1	14%

Entries from the list above that contain a thiophene ring, fused or not:
item	structure	VDR inhibitor
1	O=C(CSc1nc(-c2ccc(F)cc2)cc(C(F)(F)F)n1)NCc1cccs1	-14%
10	COc1ccc(Nc2sc(C(=O)c3ccc(Cl)cc3)c(N)c2C(=O)Nc2ccccc2OC)cc1	9%
14	Cn1c2ccccc2c(=O)c2c(=O)n(-c3ccc(F)cc3)c(-c3cccs3)nc21	11%
29	Cc1onc(-c2c(Cl)cccc2Cl)c1C(=O)NCc1cccs1	0%
56	COCCCn1c(=O)c2sccc2n(Cc2cc(C(=O)OC)ccc2OC)c1=O	-2%
61	CC(C)(C)S(=O)(=O)c1ccsc1C(=O)O	-3%

Other records follow.
item	structure	VDR inhibitor
73	Cc1oc(-c2cc(F)cc(F)c2)nc1CN1CCSCC1	-8%
74	CC(NC(=O)COC(=O)c1ccc[nH]c1=O)c1ccccc1 (centres undefined)	15%
75	CC1=NN(C(=O)c2cccc(Cn3nc(C)c([N+](=O)[O-])c3C)c2)C(O)(C(F)(F)F)C1 (centres undefined)	-10%
76	O=C1N/C(=N/O)S/C1=C/c1cccnc1	-20%
77	O=C(O)Cc1ccc(NC(=S)Nc2ccc(Br)cc2Cl)cc1	15%
78	COC(=O)N/N=C/c1cn(Cc2ccccc2F)c2ccccc12	-9%
79	COc1ccc(CCNC(=O)CCC(=O)c2cccs2)cc1OC	-4%
80	C=C(C)C(=O)NC1=NN(c2ccccc2)C(=O)C1	-1%

More results
item	structure	VDR inhibitor
81	COC(=O)[C@]1(C)N[C@H](CN(C)S(=O)(=O)c2ccc(OC)cc2)[C@@H]2C(=O)N(C)C(=O)[C@@H]21	0%
82	O=C(CC1CCCC1)Nc1nc2ccccc2[nH]1	-1%
83	CC(C)(C)N(CC#CCC(O)(c1ccccc1)c1ccccc1)CCO	-19%
84	CC(C)Cn1cnc2c(N)nc3ccccc3c21	7%&6%
